Screening data as filed in PubChem.
AmpC inh no det: Promiscuous and Specific Inhibitors of AmpC Beta-Lactamase (assay without detergent). P00811. AmpC nitrocefin hydrolysis, absorbance 480 nm, no detergent; potencies from a single point are estimates. Potency, µM (series often up to 28.7 µM), for inactives: top-dose activity change, negative = inhibition. actives 1.8% (n = 71,000); active = falling curve, for most hits resting on a single point; inconclusive = weak or doubtful change; inactive = flat or rising curve; further: % of control where 0% means no effect; about half of the hits show no inhibition at the top dose; a quarter of the inactives give rising signals
Target sequence (P00811 whole entry, looked up): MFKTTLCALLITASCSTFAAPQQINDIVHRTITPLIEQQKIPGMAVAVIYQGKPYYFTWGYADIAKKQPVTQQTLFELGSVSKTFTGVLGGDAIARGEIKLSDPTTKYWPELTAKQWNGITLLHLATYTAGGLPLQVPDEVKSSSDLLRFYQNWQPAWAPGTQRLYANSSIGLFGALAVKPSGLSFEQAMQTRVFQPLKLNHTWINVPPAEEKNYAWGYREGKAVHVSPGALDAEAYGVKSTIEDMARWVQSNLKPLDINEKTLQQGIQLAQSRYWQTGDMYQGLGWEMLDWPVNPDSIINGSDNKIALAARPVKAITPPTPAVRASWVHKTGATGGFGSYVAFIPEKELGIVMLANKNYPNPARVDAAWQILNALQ
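AmpC in 20 mM phosphate buffer pH 7.0 was preincubated 15 min at room temperature with compounds. Nitrocefin (800 uM stock) was then added and hydrolysis followed at 480 nm every 20 s for 4 min.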
Starred values were filed as active, the others as inactive; & = joins results of further samples; [ ] = dose if it differs, or a comment. Potency means the concentration at half of the fitted maximal effect. A portion of the library (hit frequency here may not be typical).

SMILES	AmpC inh no det
O=C(c1cnccn1)N1CCC[C@@]2(CCN(Cc3ccccc3)C2)C1	16.0%
CCc1ccc2c(c1)CCCN2C(=O)c1ccccc1C(=O)O	-0.9%
O=C(O)C1C2C=CC(C2)C1C(=O)Nc1ccc(C(=O)N2CCCCC2)c(Cl)c1 (stereo unspecified)	-7.4%
COc1ccc(C(=O)NCc2cn3c(C)csc3n2)cc1OC	-0.4%
O=C(CCN1C(=O)c2ccccc2S1(=O)=O)N1CCN(c2ccccc2)CC1	41.5%
Cc1ccc(NC(=O)N2CCC(C(=O)NCc3ccccc3)CC2)cc1	-1.1%
C=CCn1c(=O)c2ccccc2n2c(SCC(=O)NCc3cccs3)nnc12	0.4%
CCCCC(=O)NCCNc1nc2c(c(=O)n(C)c(=O)n2C)n1Cc1ccc(F)cc1	46.2%
CCOC(=O)c1oc2ccccc2c1NC(=O)c1cc(OC)cc(OC)c1	130.3%
CNC(=O)O/N=C/C(C)(C)SC	-16.3%
COc1ccc(-c2nc(NC(=O)c3cc(C(C)(C)C)nn3C)sc2C)cc1	21.1%
CN1CCN(c2ncc3nc(-c4cn(C)c5ccccc45)c(=O)n(CCc4ccccc4)c3n2)CC1	34.7%
N#CC1=C(N)NC(SCC(=O)O)=C(C#N)C12CCCC2	-16.1%
Cc1noc(C)c1C(=O)NC1CCCc2ccccc21 (stereo unspecified)	0.7%
C=CCOC(=O)CC(NC(=O)c1ccccc1)c1ccccc1 (stereo unspecified)	7.3%
Cc1nc(N2CCC(C)CC2)c2oc3ccccc3c2n1	88.9%
CCN1C(=O)C2(C(C#N)=C(N)Oc3n[nH]c(COC)c32)c2ccccc21 (stereo unspecified)	-2.9%
O=S(=O)(c1cccc(-c2nc3n(n2)Cc2ccccc2-3)c1)N1CCCC1	57.5%
Clc1ccccc1-c1ccc(/C=N/n2cnnc2)o1	26.6%
Cc1noc(C)c1S(=O)(=O)NCC(=O)O	-11.9%
CCC(=O)Nc1sc2c(c1C(N)=O)CCN(C(C)=O)C2	0.1%
O=c1cc(-c2cccc3ccccc23)[nH][nH]1	-6.8%
CCCN1Cc2cccc(C(=O)N3CCN(c4cc(Cl)ccc4C)CC3)c2C1=O	19.3%
COCCn1nnnc1C(c1ccccc1OC)N1CCN(c2ccccc2)CC1 (stereo unspecified)	62.0%
N#CCSc1nc2c(cc1C#N)CCCC2	-5.3%
O=C(COc1ccc(Cl)cc1Cl)NCc1ccncc1	-0.1%
CCn1c(CNc2cccc(Cl)c2)nnc1SCC(=O)OC1CCCCC1	60.2%
O=c1cnc2cncnc2n1Cc1ccccc1Cl	2.9%
CCCCCCSc1ncc(C#N)c(N)n1	7.7%
O=C(CCNS(=O)(=O)c1cccs1)NCc1cccs1	7.0%
COc1ccc2c(c1)C1(Nc3ccccc3-c3nc4ccccc4n31)C(=O)N2 (stereo unspecified)	-13.6%
COc1ccc(O)c(C(=O)c2cnn(C(=O)c3cc(C)oc3C)c2)c1	12.5%
C=CCSC1=C(C#N)C(c2ccccc2OCC)CC(=O)N1 (stereo unspecified)	-11.3%
CCn1c(SC/C=C/c2ccccc2)nnc1-c1cnccn1	55.6%
Cn1c(CN2CCOCC2)nc2cc(NC(=O)c3ccc(Cl)cc3)ccc21	60.9%
Cc1ccc(-n2nnnc2SCC(=O)N2c3ccccc3NC(=O)C2(C)C)cc1	0.5%
O=C(NCCC1=CCCCC1)C1CCCN(S(=O)(=O)c2cccnc2)C1 (stereo unspecified)	2.51µM*[single pt active]
CCOc1ccc(CN(CCO)CCO)cc1C(=O)OC	7.1%
Cc1ccc2nc(N3CCC(C(=O)O)CC3)nc(-c3ccccc3)c2c1	25.7%
O=c1c(O)c(-c2ccc(O)cc2)oc2ccc(O)cc12	15.8µM*[single pt active]

In the list so far, two have two or more sulfur atoms.
SMILES	AmpC inh no det
C=CCn1c(=O)c2ccccc2n2c(SCC(=O)NCc3cccs3)nnc12	0.4%
O=C(CCNS(=O)(=O)c1cccs1)NCc1cccs1	7.0%

Additional structures
SMILES	AmpC inh no det
O=C(CSc1oc(-c2ccco2)nc1S(=O)(=O)c1ccccc1)NCC1CCCO1 (stereo unspecified)	20.4%
COC(=O)C(C#N)c1nc2ccccc2nc1N1CCN(Cc2ccc3c(c2)OCO3)CC1 (stereo unspecified)	33.5%
Nc1ccc(Cl)c(Cl)c1	-4.3%
CC(C)(C)OC(=O)N1CCC(C(N)=O)CC1	3.98µM*[single pt active]
Cc1csc(NC(=O)CSc2nnc(Cc3cccn3C)n2-c2ccc(F)cc2)n1	86.9%
O=C(N[C@@H](c1ccccc1)[C@@H]1C[C@H]1C(=O)NCc1ccccc1)OCc1ccccc1	-13.8%
COc1cc(NC(=O)c2ccco2)ccc1NC(=O)c1ccccc1Cl	-8.4%
CCN(CC)C(=O)C1CCCN(Cc2ccc(N(C)C)cc2)C1 (stereo unspecified)	3.9%
O=C1CCc2nc3sc4c(c3c(=O)n2N1)CCCC4	-2.0%
Cc1noc(C)c1-c1ccc2ncnc(N3CCC(C(=O)O)CC3)c2c1	12.2%
CCCCOCCO	-4.7%&-15.5%
O=C(NCc1ccc2c(c1)OCO2)C1CCCN1C(=O)Nc1ccc(F)cc1 (stereo unspecified)	7.0%
N#CCCn1c(=O)c(-c2ccc(F)cc2)nc2cnc(OCc3ccccc3)nc21	-4.0%
COC(=O)c1c(NC(=O)c2ccoc2C)sc2c1CCC2	10.0%
CCS(=O)(=O)Nc1cc(-c2nc3cccnc3s2)ccc1C	29.6%
COc1ccc(-c2nnc3ccc(SC)nn23)cc1	34.3%
COc1ccc(-c2n[nH]c(=S)n2C2CCCCC2)cc1	7.4%
CCCCn1c(O)c(C(CC)=NCCN2CCCCC2)c(=O)[nH]c1=O	23.7%
CCC(C)[C@@H](C(=O)Nc1ccc(OC)c(OC)c1)N1Cc2ccccc2C1=O (stereo partly specified)	3.98µM*[single pt active]
Cn1c(=O)c2c(ncn2CC(O)CNc2ccc(Cl)cc2)n(C)c1=O (stereo unspecified)	34.7%
COc1ccccc1N=C1SCCCN1C	-3.1%
O=C1c2ccccc2-c2ccc(N=[N+]([O-])c3ccc4c(c3)C(=O)c3ccccc3-4)cc21	-3.5%[5.75 µM]
O=C(NCCCNCc1ccccc1)c1ccccn1	-8.1%
Cc1nc2nc(C)c(CCC(=O)NC(C)c3ccc4c(c3)OCCO4)c(C)n2n1 (stereo unspecified)	5.1%
CCc1c(C)n2nc(C)cc2[nH]c1=O	3.4%
Cc1nnc(SCC(C)C)[nH]c1=O	-8.6%
N#CCCn1c(=O)c(-c2cccs2)nc2cnc(Oc3ccccc3)nc21	3.4%
COc1cc([C@H]2[C@@H]3CCCC[C@]3(O)CCN2CC(=O)Nc2ccc(C)cc2)ccc1O	42.6%
COc1ccc(S(=O)(=O)n2ccnc2)c2cccnc12	-9.7%
O=c1[nH]c(=O)n(Cc2ccco2)c(O)c1C=NCc1ccco1	-17.3%
COc1cc(C(=O)N2CCCN(c3nc4cc(C)ccc4cc3C#N)CC2)cc(OC)c1OC	148.0%
CCOC(=O)CNC(=O)CSc1nnc(-c2cccc(C)c2)n1-c1ccc(OC)cc1	87.4%
CN=C1SC(CC(=O)Nc2sc(C)c(C)c2C(=O)OC)C(=O)N1C (stereo unspecified)	126.8%
NCCN1CCN(CCN)CC1	-6.4%
CCOC(=O)N1CCN(C(=O)Cc2ccc(Cl)cc2)CC1	39.5%
O=C(c1cnn2ccccc12)N1CCCc2ccccc21	3.98µM*[single pt active]
COc1cccc(-c2noc(-c3cccnc3)n2)c1	33.3%
CCCNC(=O)c1cc(-c2ccco2)on1	4.1%
O=c1oc2ccccc2c2c1ncn2C1CCCCC1	7.3%
N#CCSc1nnc(N)s1	-7.7%
COc1ccc(C2C(C(C)=O)=C(C)N=c3s/c(=C/c4ccc5c(c4)OCO5)c(=O)n32)cc1 (stereo unspecified)	26.2%
Cc1cccc(N2C(=O)CC(N3CCN(C(=O)c4ccccc4)CC3)C2=O)c1 (stereo unspecified)	33.8%
Cn1ccnc1Sc1nc2ccccc2nc1NS(=O)(=O)c1ccccc1	-6.9%
COc1ccccc1N1CCN(Cc2ccc(Br)o2)CC1	22.6%
COc1ccc(OC)c(NC(=O)COC(=O)c2ccc(-n3cnnn3)cc2)c1	5.0%
O=c1c(-c2ccccc2)nc2cnc(N3CCOCC3)nc2n1-c1ccccc1	6.3%
CCC1Sc2ccccc2N(CC(=O)NC2CCCC2)C1=O (stereo unspecified)	-1.1%
O=S(Cc1ccc(Cl)cc1)CC(O)COc1ccc(Cl)cc1 (stereo unspecified)	73.3%
Cn1c(=O)c2c(nc(SCC(=O)Nc3ccc(N4CCOCC4)c(Cl)c3)n2C)n(C)c1=O	0.4%
CCOC(C)=O	9.9%
CCCCn1c2c(c3ccccc31)CCc1nonc1-2	3.98µM*[single pt active]
C=CCOC(=O)CCP(=O)(CCC(=O)OCC=C)c1ccccc1	3.5%
O=C(Nc1cccc(C(=O)N2CCOCC2)c1)NC1CCCCC1	11.7%
COc1cc(C)nc(OCCNC(=O)COc2ccc(Cl)cc2C)n1	75.5%
C=C(C)CSc1nnc(-c2cc(OC)c(OC)c(OC)c2)n1N	-3.2%
CNC(=O)NCCN1CCCC1=O	-9.1%
CC1(C(=O)N(c2ccccc2)C(C(=O)NC2CCCC2)c2ccccn2)CC(=O)N=C2C=CC=CN21 (stereo unspecified)	8.0%
CCCCC(CC)COCC1CO1 (stereo unspecified)	-4.0%
COc1ccc(OC)c(NC(=O)c2cn(C)c(=O)c3cc(OC)c(OC)cc23)c1	143.4%
CCOC(=O)c1oc2ccccc2c1CSc1nnnn1-c1ccc(C)cc1	-0.1%

Quoted from the listing:
`CC1(C(=O)N(c2ccccc2)C(C(=O)NC2CCCC2)c2ccccn2)CC(=O)N=C2C=CC=CN21` (stereo unspecified) in AmpC inh no det = 8.0%
`O=S(Cc1ccc(Cl)cc1)CC(O)COc1ccc(Cl)cc1` (stereo unspecified) in AmpC inh no det = 73.3%
`COc1ccccc1N1CCN(Cc2ccc(Br)o2)CC1` in AmpC inh no det = 22.6%
`COc1ccc(C2C(C(C)=O)=C(C)N=c3s/c(=C/c4ccc5c(c4)OCO5)c(=O)n32)cc1` (stereo unspecified) in AmpC inh no det = 26.2%
`CCC1Sc2ccccc2N(CC(=O)NC2CCCC2)C1=O` (stereo unspecified) in AmpC inh no det = -1.1%

(listing goes on)
SMILES	AmpC inh no det
C=CCn1cc(C(=O)N2CCN(C)CC2)c(=O)c2cc(S(=O)(=O)N3CCCC3)ccc21	-20.7%
Cc1ccccc1NC(=O)C1CCC(C)(C(=O)O)C1(C)C (stereo unspecified)	0.1%
CC(=O)Nc1nonc1NC(=O)CSC1=NCCS1	-5.1%
CN1CCN(c2nc3c(c(=O)[nH]c(=O)n3C)n2CCOc2ccccc2)CC1	17.4%
COc1ccc(-n2c(SCC(=O)Nc3cc(C)on3)nc3c(c2=O)SCC3)cc1	-5.4%
CCOCCCNc1ccc(-c2ccccc2)nn1	-3.8%
O=C(Nc1ccccc1C(=O)OCc1nnc(-c2ccccc2)o1)c1ccco1	31.0%
Cc1nc2nc(C)c(CCC(=O)NCCCN3CCN(c4cccc(Cl)c4)CC3)c(C)n2n1	17.7%
CN1CCN(C2=Cc3ccccc3Oc3ccc(Cl)cc32)CC1	119.0%
CCOC(=O)N1CCN(C(=O)C2CCCN(Cc3nc(-c4ccc(Cl)cc4)oc3C)C2)CC1 (stereo unspecified)	140.6%
COc1cccc(N2CCN(C3OC(=O)c4ccccc43)CC2)c1 (stereo unspecified)	-19.8%
COCCn1c(-c2ccc(OC)c(OC)c2)nc2ccccc21	9.0%
CC(C)c1nnc(NC(=O)c2cnccn2)s1	-5.4%
Cc1ccc(S(=O)(=O)c2c(N)n(NC(=O)c3ccco3)c3nc4ccccc4nc23)cc1	-12.3%
CC(=O)Nc1ccc(C(=O)CSc2ncn(-c3ccccc3)n2)cc1	8.3%
CCOc1ccc(S(=O)(=O)Nc2nc3ccccc3nc2N2CCN(C)CC2)cc1	63.6%
CCOC(=O)C(NC(=O)Nc1ccccc1)(OCC)C(F)(F)F (stereo unspecified)	14.2%
COC(=O)CC1Nc2ccccc2SC1=O (stereo unspecified)	-2.4%
Nc1ncc(-c2ccccc2)n1CC1CCCO1 (stereo unspecified)	41.0%
CCN(CC)S(=O)(=O)c1ccc(C(=O)OC2CCCCC2CN(C)C)cc1 (stereo unspecified)	15.4%
O=c1c2cc(N3CCOCC3)ccc2[nH]c(=S)n1Cc1ccccn1	7.2%
COc1ccc(NC(=O)N2CCC3(CC2)CCN(C(=O)c2cnccn2)CC3)cc1	94.5%
COC(=O)CSc1nc(C)cc(Oc2ccccc2)n1	27.0%
NC/C=C\C(=O)O	1.0%&-5.5%&-8.3%
CC(=O)c1cccc(NS(=O)(=O)N2CCCCC2)c1	-2.2%
O=C(Oc1ccccc1C(=O)N1CCOCC1)c1ccccc1	6.8%
Cc1nc2cnc(Oc3ccccc3)nc2n(C)c1=O	11.8%
CN1CCN(c2ccc3ccccc3n2)CC1	11.4%&2.9%
O=C(Nc1nncs1)Oc1ccccc1	-3.1%
CCOC(=O)c1c(C)[nH]c(C(=O)COC(=O)c2ccncc2)c1C	17.8%
COc1ccc(N(C)C(=O)CCS(=O)(=O)c2cccc3nonc23)cc1	21.5%
Nn1c(Nc2ccccc2)nc2ccccc21	-10.9%
CC1CCN(C(=O)C2CCC(CNS(=O)(=O)c3cccc4cccnc34)CC2)CC1 (stereo unspecified)	110.5%
CN=c1scc(C)n1/N=C/c1ccc(O)cc1	4.0%
CC(C)C(c1nnnn1Cc1ccco1)N1CCN(C2CCCC2)CC1 (stereo unspecified)	-5.6%
CN1CCN(c2ncncc2-c2ccc(N(C)C)cc2)CC1	34.6%
CCN1C(=O)/C(=C2/Sc3ccccc3N2CCCS(=O)(=O)O)SC1=S	-3.7%
Cc1csc2nc3ccccc3c(=O)n12	14.5%
COc1ccc(CNc2ccc3cn[nH]c3c2)c(OC)c1OC	10.7%
